Source: PubChem BioAssay (several laboratories)
PrP UTR inh = suppresses PrP 5' UTR mRNA reporter expression; cell-based PrP 5' UTR mRNA reporter, plate reader; inhibition, % (concentration not given with the values); 340,000 compounds, 0.35% hits; AID 488862;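 active = every replicate at 50% or more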;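 note: 0 = median of the neutral control wells; tested in H4 reporter cells; numbers are from one replicate; inactives centre near -14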
RN4220 kill = kills Staphylococcus aureus RN4220. inhibition, % (test concentration not listed). AID 1259311. 330,000 compounds, 0.33% hits. S. aureus RN4220 growth, OD600, 16 h;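 active = z-score of -3 or lower and OD600 up to 0.18 on both plates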;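 note: plate controls were untreated cells for no effect and reference antibiotic for full effect; stock transfer was 100 nL into about 80 µL; one replicate is shown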
Mtb hypoxia inh = inhibitors of hypoxia-regulated fluorescent reporter in Mycobacterium tuberculosis; M. tuberculosis hypoxia-regulated fluorescent reporter, fluorescence; fluorescence inhibition, % (concentration not given with the values); 300,000 compounds, 0.1% hits;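 active = 35 to 45% if threefold the growth effect, above 45% if 1.5-fold the growth effect; inactive = the rest, general growth blockers included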;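 note: wells of about 50 µL received 100 nL stock; 0% = vehicle wells and 100% = reference inhibitor wells; whole bacteria with a GFP reporter of the hypoxia response; strong numbers were not always called active; many hits fall short of the cut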
Autofluor counter = flagged as autofluorescent in microsphere protease counterscreen; compound autofluorescence counterscreen, microsphere flow cytometry; stronger effect = higher value; AID 624483; fluorescence intensity (concentration not given with the values); 360,000 compounds, 3.1% hits;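 active = at least 3 SD above the mean of all compounds, about 16000 in these data; inconclusive = too few beads counted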;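 note: 100 nL of 1 mM stock went into each well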
Sa ugtP lethal = kills S. aureus RN4220 lacking UgtP | growth inhibition, % (concentration not given with the values) | AID 1259309 | S. aureus RN4220 ugtP deletion, OD600 growth, 16 h; some inactives read as strong as hits | 330,000 compounds, 0.54% hits;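 active = z-score under -3 and OD600 up to 0.15 on both plates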;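 note: plate controls were untreated wells for no effect and antibiotic for full effect; wells of about 80 µL received 100 nL stock; the first replicate is given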
BJeLR viability = BJeLR cell viability loss | AID 1554 | inhibition, % (concentration not given with the values) | 300,000 compounds, 0.17% hits | BJeLR (HRASV12) viability, CellTiter-Glo ATP luminescence, 48 h; reference of the scale not given here;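 active = replicate mean above 50%; inconclusive = above 50% but judged a plate artefact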;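 note: 50 nL library stock added to about 25 µL; numbers are from one replicate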
Mtb hypoxia inh growth = recorded beside Mtb hypoxia inh, whose call it bears; growth inhibition, %; measured here: M. tuberculosis growth (absorbance);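 0% = vehicle and 100% = reference antibiotic; read after six days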
* marks the source's active call; other numbers are inactive results; ? = inconclusive; nt = not tested or not shown. Random draw from the library. Share with any hit: about 4.1%.

| smiles | PrP UTR inh | RN4220 kill | Mtb hypoxia inh | Mtb hypoxia inh growth | Autofluor counter | Sa ugtP lethal | BJeLR viability |
| --- | --- | --- | --- | --- | --- | --- | --- |
| COc1ccc(OC)c(S(=O)(=O)Nc2ccc3c(c2)N(C(C)=O)CCC3)c1 | -3 | 2.0 | -22 | -34 | 6284 | -1 | 1 |
| COc1ccc(C)cc1S(=O)(=O)N1CCN(S(=O)(=O)c2cc(C)ccc2OC)CC1 | -16 | 0.9 | -9 | -8 | 3552 | 2 | 5 |
| Cc1ccccc1C(=O)NC1CCN(Cc2ccccc2)CC1 | -6 | 1.5 | 4 | 3 | 3083 | 3 | 1 |
| COc1ccc(-c2[nH]ncc2CN2CCN(C(=O)c3ccco3)CC2)cc1F | 16 | 4.9 | 9 | 5 | 3170 | 2 | 4 |
| CCC1CCCCN1C(=O)CSc1nnc(-c2ccc3c(c2)OCCO3)o1 (stereo unspecified) | 2 | 5.2 | nt | nt | 5816 | -12 | 2 |
| O=S(=O)(Nc1ccc(-c2ccc3nncn3n2)cc1)c1ccccc1Cl | -2 | 7.9 | 2 | 7 | 6080 | -4 | -2 |
| NC(=O)COC(=O)c1cc(-c2ccco2)nc2ccccc12 | -7 | 3.9 | -6 | 0 | 4445 | 12 | 0 |
| COc1ccccc1NC(=O)CCc1c(C)nc2c(-c3ccc(F)cc3)c(C)nn2c1C | -9 | -1.8 | 14 | 11 | 4565 | 2 | 2 |
| CCOC(=O)c1c(-c2ccccc2)oc2cc(CN(C)C)c(O)c(CN(C)C)c12 | -23 | 1.5 | 6 | 9 | 11111 | 54 | -2 |
| CC(=O)OCC1=C(C(=O)O)N2C(=O)C(NC(=O)CC(C)c3ccccc3)C2SC1 (stereo unspecified) | -4 | 100* | nt | nt | 8905 | 94* | nt |
| C=CCOC(=O)C1=C(C)OC(N)=C(C#N)[C@@]12C(=O)N(CC(N)=O)c1ccccc12 | -17 | 5.3 | 5 | 2 | 3815 | -4 | 7 |
| CN(C)CCCN(C(=O)c1ccc(S(=O)(=O)N2CCCCCC2)cc1)c1nc2ccc(F)cc2s1 | -13 | -0.9 | 5 | -1 | nt | 5 | 3 |
| O=C1N(c2cccc(Cl)c2)C(c2ccc(Cl)cc2)N2CCCN12 (stereo unspecified) | -10 | 0.4 | 5 | 6 | 2610 | 3 | -6 |
| CCN(CC)S(=O)(=O)c1cc([N+](=O)[O-])ccc1NNC(=O)Nc1ccccc1 | nt | 6.0 | 8 | 0 | nt | 32 | -1 |
| CCN(C(=O)COC(=O)/C=C/c1c(C)nn(-c2ccccc2)c1C)C1CCS(=O)(=O)C1 (stereo unspecified) | -4 | 4.2 | 15 | 9 | 3584 | 0 | 14 |
| Cc1nnc(NC(=O)CSc2nnc(CC(=O)Nc3ccccc3F)n2C)s1 | -19 | 4.2 | 0 | 0 | 4312 | 2 | -3 |
| CC(=O)c1ccc(NC(=O)CCCCCn2nnc3ccccc3c2=O)cc1 | -9 | -1.2 | -4 | 11 | 4018 | 1 | 8 |
| Cc1ccc(C=NNC(=O)c2ccc(N(C)S(=O)(=O)c3ccccc3)cc2)cc1 | nt | 8.7 | 1 | -1 | nt | 4 | nt |
| S=c1[nH]nc(-c2ccco2)n1/N=C/C=C/c1ccco1 | -5 | nt | nt | nt | 2463 | nt | 15 |
| COC(=O)c1ccccc1NC(=O)c1cc(-c2ccc(C)cc2)on1 | -13 | 2.5 | -4 | -7 | 8183 | 7 | 1 |
| Cc1cc(C)c2c(=O)c(/C=C3\NC(=S)NC3=O)coc2c1 | nt | 4.1 | 16 | -3 | nt | 8 | 5 |
| Cc1nn(C(C)C(=O)N2CCCCC2)c(=O)c2c1sc1ccccc12 (stereo unspecified) | -12 | -5.8 | 12 | 6 | 2852 | -6 | 5 |
| CCC(=O)c1ccc(OCC(=O)OCC(=O)NC2CCCC2)cc1 | -16 | 0.1 | -2 | -11 | 4841 | -1 | 10 |
| O=C(CNC(=O)c1cccs1)NCCc1ccco1 | -13 | 2.1 | -6 | 2 | 3860 | -2 | nt |
| CCOC(=O)c1c(N)sc(C(=O)N2CCCC2)c1C | -27 | 3.4 | nt | nt | 2793 | 0 | 6 |
| Cc1nc(N2CCCCCC2)c2ccccc2n1 | -10 | 4.4 | 1 | 8 | 4616 | 10 | -1 |
| C=CCc1c(C)nc(C)nc1NN=Cc1ccccc1O | nt | -0.7 | 0 | 0 | nt | -2 | nt |
| O=C(Nc1cc(Cl)ccc1Cl)C1CC(=O)N(c2ccccc2)C1 (stereo unspecified) | -21 | 5.6 | 1 | 3 | 4071 | 4 | 3 |
| Cc1cc(C)c(S(=O)(=O)N2CCN(C(=O)c3cc4ccccc4o3)CC2)c(C)c1 | -12 | 4.3 | 3 | -1 | ? | 4 | nt |
| S=C(NCc1ccccc1)N1CCN(C2CCCCC2)CC1 | 2 | 3.8 | 13 | 13 | 4419 | 7 | 7 |

Remaining list, next part
| smiles | PrP UTR inh | RN4220 kill | Mtb hypoxia inh | Mtb hypoxia inh growth | Autofluor counter | Sa ugtP lethal | BJeLR viability |
| --- | --- | --- | --- | --- | --- | --- | --- |
| COCCCNC(=O)/C(=C\c1cccn1C)NC(=O)c1cccs1 | -9 | nt | nt | nt | 2352 | nt | -3 |
| O=C(c1ccc(Cl)c(F)c1F)N1CCOCC1 | -10 | 2.7 | 6 | 4 | 7365 | 12 | 4 |
| CC(C)CNC(=O)CC(=O)NN=Cc1ccc(F)cc1 | nt | 2.0 | 15 | 1 | nt | 5 | nt |
| CCCn1c(SCC(=O)NC)nc2sc3c(c2c1=O)CCC3 | -11 | 1.9 | 10 | 4 | 5717 | 10 | -6 |
| Nc1c(C(=O)O)nnn1Cc1ccccc1 | -23 | 2.8 | 21 | 5 | 9524 | 2 | 3 |
| C[C@@H](CN1C2=NC[C@H](Cc3ccccc3)N2C[C@H]1Cc1ccc(O)cc1)NC(=O)CCC1CCCCC1 | -14 | -11 | 5 | 13 | 4433 | -32 | -2 |
| Cc1ccc(N/C=C2\CCCCC2=O)nc1 | -32 | 5.0 | 4 | -4 | 3935 | 3 | 2 |
| O=C(CO/N=C/c1ccccc1O)N1CCc2ccccc21 | -12 | nt | nt | nt | 2269 | nt | -6 |
| c1ccc(C2=NC(c3ccccc3)N=C(c3ccccc3)N2)cc1 | -8 | -5.3 | 11 | 5 | 2288 | 5 | -7 |
| CCOC(=O)c1c(/N=C/N(C)C)sc2c1CCC2 | -7 | nt | nt | nt | 2540 | nt | 5 |
| C/C(=N\NC(=S)NCCc1ccccc1)c1cccc(Br)c1 | -12 | nt | nt | nt | 3224 | nt | 8 |
| CC(=NNC(=O)CON=C(C)c1cccs1)c1ccc(N)cc1 | nt | -1.1 | -2 | -2 | nt | 1 | nt |
| N#CC1(C#N)CC(C=O)=C(N)C1(C#N)CC(=O)c1ccc(F)cc1 (stereo unspecified) | -11 | 0.8 | nt | nt | 5220 | 6 | 3 |
| Cc1ccc(OCC(=O)Nc2ccc(F)cc2)cc1 | -35 | 5.8 | 9 | 2 | 5282 | 6 | 0 |
| O=C(NN=C(c1ccccc1)c1cccnc1)c1ccc(O)cc1 | nt | 6.4 | -1 | -8 | nt | 15 | nt |
| CCOC(=O)c1ccc(N(CC2CO2)S(=O)(=O)c2ccc(C)cc2)cc1 (stereo unspecified) | -29 | 0.3 | 14 | 3 | 3339 | 3 | nt |
| CCN(CC)C(=O)C1CCN(S(=O)(=O)c2ccc3c(c2)CCCN3C(=O)C2CCC2)CC1 | -24 | 2.7 | 3 | 6 | 5882 | 1 | 0 |
| COc1ccc(/C(N)=N/OC(=O)Oc2ccccc2)cc1 | -9 | 1.4 | nt | nt | 4754 | 1 | 1 |
| CCOC(=O)c1nccnc1C(=O)Nc1ccc(C(F)(F)F)cc1 | -26 | 0.4 | 8 | -4 | 3095 | -71 | -1 |
| O=[N+]([O-])c1ccccc1CNCCc1c[nH]c2ccccc12 | -32 | -6.7 | -3 | 2 | 3083 | -3 | -5 |
| Cc1noc(C)c1NC(=O)Nc1ccc2c(c1)C(=O)N([C@H](C)CO)C[C@H](C)[C@@H](CN(C)C(=O)Nc1ccc(C(F)(F)F)cc1)O2 | -17 | 2.4 | 2 | 3 | 2979 | 12 | nt |
| CCOc1ccccc1Nc1nc(N)nc(CSc2nncn2C)n1 | -9 | 2.6 | 1 | -1 | 23051* | 0 | 2 |
| Cc1cc(Cl)ccc1NC(=O)CCN1C(=O)NC(C)(C)C1=O | -10 | 2.0 | 13 | 11 | 3592 | 5 | nt |
| CC1CC(C)CN(S(=O)(=O)c2ccc(C(=O)Nc3nnc(-c4cccs4)o3)cc2)C1 (stereo unspecified) | -1 | 100* | 1 | 12 | 2815 | 100* | 23 |
| Cc1onc(-c2ccncc2)c1C(=O)O | -9 | 5.0 | 9 | 4 | 2890 | -1 | -2 |
| CN1C2CCC1CC(NC(=O)CSc1ccc(Cl)cc1)C2 (stereo unspecified) | -22 | 3.8 | -3 | -4 | 5951 | 7 | -2 |
| COc1cc(/C=N/NC(=O)Nc2cccc3nsnc23)cc(OC)c1OC | 13 | nt | nt | nt | 3313 | nt | 1 |
| COc1ccccc1-c1cn[nH]c1-c1ccc(OCc2ccc(F)cc2)cc1O | -8 | -6.9 | 7 | -5 | 4366 | 2 | -7 |
| O=C(C(=O)N1CCOCC1)c1cn(CC(=O)N2CCCCC2)c2ccccc12 | -5 | 2.4 | 9 | 0 | 4607 | 7 | -13 |
| CC(Oc1ccc(Br)cc1)C(=O)N1CCC(C(N)=O)CC1 (stereo unspecified) | -15 | 6.4 | -1 | 3 | 3379 | 3 | 4 |

An excerpt of these results, as labelled records:
> CCOC(=O)c1c(/N=C/N(C)C)sc2c1CCC2
- PrP UTR inh: -7
- RN4220 kill: nt
- Mtb hypoxia inh: nt
- Mtb hypoxia inh growth: nt
- Autofluor counter: 2540
- Sa ugtP lethal: nt
- BJeLR viability: 5

> COc1ccc(C)cc1S(=O)(=O)N1CCN(S(=O)(=O)c2cc(C)ccc2OC)CC1
- PrP UTR inh: -16
- RN4220 kill: 0.9
- Mtb hypoxia inh: -9
- Mtb hypoxia inh growth: -8
- Autofluor counter: 3552
- Sa ugtP lethal: 2
- BJeLR viability: 5

> CCC(=O)c1ccc(OCC(=O)OCC(=O)NC2CCCC2)cc1
- PrP UTR inh: -16
- RN4220 kill: 0.1
- Mtb hypoxia inh: -2
- Mtb hypoxia inh growth: -11
- Autofluor counter: 4841
- Sa ugtP lethal: -1
- BJeLR viability: 10

> CCN(CC)S(=O)(=O)c1cc([N+](=O)[O-])ccc1NNC(=O)Nc1ccccc1
- PrP UTR inh: nt
- RN4220 kill: 6.0
- Mtb hypoxia inh: 8
- Mtb hypoxia inh growth: 0
- Autofluor counter: nt
- Sa ugtP lethal: 32
- BJeLR viability: -1

(listing goes on)
molecule	PrP UTR inh	RN4220 kill	Mtb hypoxia inh	Mtb hypoxia inh growth	Autofluor counter	Sa ugtP lethal	BJeLR viability
CCn1c(CC(=O)Nc2ccc(C)c(Cl)c2)nnc1SCC(=O)Nc1nc(C)cs1	0	6.1	13	4	15646	-7	-3
N#CNC(=Nc1ccc(Cl)cc1)Oc1ccccc1	-19	3.1	7	2	4452	1	0
Cc1ccccc1OCCC(=O)OCC(=O)NCCNC(=O)COC(=O)CCOc1ccccc1C	-29	5.5	2	1	4512	2	-3
O=C(C(=C1N(Cc2ccc(Cl)nc2)CCN1Cc1ccc(Cl)nc1)[N+](=O)[O-])C(Cl)Cl	-16	-0.8	1	7	3698	3	-2
CCc1ccccc1NC(=O)CNC(=O)c1ccccc1OCc1c(C)noc1C	-13	3.3	6	7	5602	4	-4
O=C(/C=C/c1ccccc1Cl)NC1CCS(=O)(=O)C1 (stereo unspecified)	-18	1.7	6	0	5081	-1	0
CCOC(=O)C(NC(C)=O)C(O)c1ccc([N+](=O)[O-])cc1 (stereo unspecified)	-15	2.4	-4	12	4762	1	5
c1ccc(OCCCCn2cnc3ccccc32)cc1	-15	-13	10	8	2853	-7	5
